GALR2 ag – agonists of human galanin receptor 2 (GALR2). O43603. GALR2-expressing cells, agonist activation read-out. activation, %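 (tested at 5 µM)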. actives 0.48% (n = 140,000);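 active = above mean plus 3 SD of all compounds, about 5% in these data, not always enough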;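 also: 0% = vehicle buffer wells and 100% = reference agonist at full effect; tested in CHO reporter cells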
Target sequence (O43603 whole entry, looked up): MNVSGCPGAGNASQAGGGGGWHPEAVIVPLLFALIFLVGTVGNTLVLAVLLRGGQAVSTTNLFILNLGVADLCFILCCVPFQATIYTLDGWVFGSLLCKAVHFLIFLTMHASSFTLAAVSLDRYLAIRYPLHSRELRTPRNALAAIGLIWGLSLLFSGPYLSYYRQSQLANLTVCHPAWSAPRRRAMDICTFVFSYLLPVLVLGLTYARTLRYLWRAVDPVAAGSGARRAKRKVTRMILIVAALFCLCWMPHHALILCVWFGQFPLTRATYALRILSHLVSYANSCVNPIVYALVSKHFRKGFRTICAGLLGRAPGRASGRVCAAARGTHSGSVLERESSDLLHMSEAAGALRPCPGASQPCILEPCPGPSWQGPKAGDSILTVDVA
HSV replic up – HSV replication enhancement | maximum fold increase | HSV replication augmentation in cells, fold increase | actives 0.005% (n = 220,000);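 active = peak rise of 1.5-fold or more in the series; tested in PC3 cells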;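 also: first round at 10 µM; read as green reporter fluorescence; hits show the peak of a series up to 25 µM; 1 = signal of infected wells without compound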
PKD1 inh – blocks activity of human protein kinase D1 | inhibition, %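 (about 10 µM by stock and volumes)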 | AID 797 | actives 0.056% (n = 200,000) | Q15139 | PKD1 kinase fluorescence polarization assay;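 active = inhibition of 50% or more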;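 also: controls were vehicle for no effect and a reference inhibitor for full effect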
Insulin prom inh – TRM-6 insulin promoter activity inhibition | actives 0.9% (n = 130,000) | inhibition, % at 2 µM | TRM-6 cells (human fetal islet line), insulin promoter-eGFP reporter, imaging; reporter expression induced with tamoxifen;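 active = inhibition above the mean plus 3 SD, with well images judged a real hit on visual review, cut at about 60% in these data, passing the limit was not always enough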
RGS16-Gao HTS – regulators of human RGS16-Galphao interaction; actives 0.38% (n = 220,000); AID 1441; O15492+P09471; binding response (% of control), % at 10 µM; bead-based flow cytometry RGS16-Galphao binding, fluorescence; actives lie on both sides;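 active = below 25% or above 175%, edge rows of some plates excepted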;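 also: Galphao activated by GDP with aluminum fluoride before binding; 100% = wells without compound and 0% = beads without RGS; some results beyond the cut were filed as inactive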
Target sequence (O15492 whole entry, looked up): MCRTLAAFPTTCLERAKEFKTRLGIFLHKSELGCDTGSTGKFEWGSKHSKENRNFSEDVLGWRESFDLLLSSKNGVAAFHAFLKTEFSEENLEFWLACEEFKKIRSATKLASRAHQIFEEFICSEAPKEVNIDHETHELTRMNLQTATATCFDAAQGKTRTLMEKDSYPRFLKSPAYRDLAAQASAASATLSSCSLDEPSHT
Target sequence (P09471 whole entry, looked up): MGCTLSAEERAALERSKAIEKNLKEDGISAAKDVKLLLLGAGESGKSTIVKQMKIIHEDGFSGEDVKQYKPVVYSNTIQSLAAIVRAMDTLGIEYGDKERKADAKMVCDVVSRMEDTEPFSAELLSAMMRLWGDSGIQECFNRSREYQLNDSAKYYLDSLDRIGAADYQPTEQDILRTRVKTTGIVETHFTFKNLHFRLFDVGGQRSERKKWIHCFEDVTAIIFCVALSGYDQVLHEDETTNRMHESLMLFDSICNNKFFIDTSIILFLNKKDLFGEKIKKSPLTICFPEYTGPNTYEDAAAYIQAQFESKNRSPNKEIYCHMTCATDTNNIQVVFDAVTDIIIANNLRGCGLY
Insulin prom inh cell count – recorded beside Insulin prom inh, whose call it bears; normalized cell count, %; measured here: cell count, toxicity; reference of the scale not given here;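 cells exposed to compound for 48 h; stained nuclei by imaging scaled within each plate; lower means fewer cells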
HSV replic up primary fold – further read-out of HSV replic up, marked with its call; fold increase; compound at 10 µM; measured here: primary screen fold increase 10 uM; tested in PC3 cells;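 GFP signal in the first replicate; 1 = infected wells without compound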
The depositor's hits bear a star. Rows are unselected; 1.2% or so of the library scored in one or more.

Results for COc1ncnc2c1N[C@@](C)(O)c1c(F)c(F)c(F)c(F)c1S2 ?
GALR2 ag: -2.1; HSV replic up: inactive; PKD1 inh: -2; Insulin prom inh: -3; RGS16-Gao HTS: 102; Insulin prom inh cell count: 115; HSV replic up primary fold: 1

Results for CSc1ccccc1NC(=O)c1cccs1 ?
GALR2 ag: 0.5; HSV replic up: inactive; PKD1 inh: 1; Insulin prom inh: -14; RGS16-Gao HTS: 101; Insulin prom inh cell count: 153; HSV replic up primary fold: 0.89

What do the screens show for `CN1CCN(CCCN(Cc2ccco2)C(=S)Nc2ccc(Cl)cc2)CC1`?
HSV replic up: inactive; PKD1 inh: 5; RGS16-Gao HTS: 100; HSV replic up primary fold: 0.87

Results for Cn1cnc2c(N/N=C/c3cccs3)ncnc21 ?
HSV replic up: inactive; RGS16-Gao HTS: 104; HSV replic up primary fold: 1.1

What do the screens show for `O=C(N/N=C\c1cc(Br)cs1)c1ccncc1`?
HSV replic up: inactive; RGS16-Gao HTS: 95; HSV replic up primary fold: 0.94

What do the screens show for `Cc1nc2c(=O)n(C)c(=O)n(C)c2nc1Cl`?
GALR2 ag: 0.2; HSV replic up: inactive; PKD1 inh: 5; Insulin prom inh: 18; RGS16-Gao HTS: 113; Insulin prom inh cell count: 34; HSV replic up primary fold: 0.82

Results for COC(=O)C(CC(C)C)NC(=O)c1ccc([N+](=O)[O-])c(C)c1 (stereo not given) ?
GALR2 ag: -2.0; HSV replic up: inactive; PKD1 inh: 5; Insulin prom inh: -33; RGS16-Gao HTS: 104; Insulin prom inh cell count: 46; HSV replic up primary fold: 0.99

What do the screens show for `COc1ccc(-c2ccc(/C=N/N3C(=O)C4C5C=CC(C6CC56)C4C3=O)o2)c([N+](=O)[O-])c1` (stereo not given)?
GALR2 ag: -0.6; HSV replic up: inactive; PKD1 inh: 0; RGS16-Gao HTS: 89; HSV replic up primary fold: 1.2

What do the screens show for `O=C(Cn1cc(S(=O)(=O)N2CCN(c3ccccc3F)CC2)c2ccccc2c1=O)NCCCN1CCCCCC1`?
HSV replic up: inactive; PKD1 inh: -5; Insulin prom inh: 19; RGS16-Gao HTS: 97; Insulin prom inh cell count: 102; HSV replic up primary fold: 1

What do the screens show for `Cc1cccc(Nc2ccc(NCc3ccccc3)nn2)c1`?
HSV replic up: inactive; PKD1 inh: -7; Insulin prom inh: -40; RGS16-Gao HTS: 100; Insulin prom inh cell count: 108; HSV replic up primary fold: 1.1

Results for Cc1cccn2c(=O)c3cc(C(N)=S)c(=N)n(CCCOC(C)C)c3nc12 ?
GALR2 ag: 1.4; HSV replic up: inactive; PKD1 inh: 6; RGS16-Gao HTS: 98; HSV replic up primary fold: 0.92

Results for CC(C)[C@@H](C(=O)N1CCN(C(=O)OC(C)(C)C)CC1)n1cc(CCO)nn1 ?
HSV replic up: inactive; PKD1 inh: -12; RGS16-Gao HTS: 92; HSV replic up primary fold: 0.93

How did CC(=O)Nc1ccc(NC(=O)CSc2nccn2Cc2ccccc2)cc1 do in these assays?
GALR2 ag: -1.2; HSV replic up: inactive; PKD1 inh: -32; Insulin prom inh: 36; RGS16-Gao HTS: 106; Insulin prom inh cell count: 91; HSV replic up primary fold: 1.1

What do the screens show for `Cc1cc(C(=O)N/N=C/c2c(C)nn(-c3ccccc3)c2Cl)n[nH]1`?
HSV replic up: inactive; RGS16-Gao HTS: 94; HSV replic up primary fold: 0.93

Results for COc1ccccc1C(=O)NC1CCN(C(=S)NCCc2ccccc2)CC1 ?
HSV replic up: inactive; PKD1 inh: 6; RGS16-Gao HTS: 109; HSV replic up primary fold: 0.92

What do the screens show for `O=C(NNc1nc2c(F)cc(F)cc2s1)C1=COCCO1`?
HSV replic up: inactive; PKD1 inh: 1; Insulin prom inh: 33; RGS16-Gao HTS: 110; Insulin prom inh cell count: 143; HSV replic up primary fold: 0.94

Results for Cc1ccc(-n2c(-c3ccccc3)c[n+]3c2CCC3)cc1 ?
HSV replic up: inactive; PKD1 inh: -4; Insulin prom inh: 14; RGS16-Gao HTS: 106; Insulin prom inh cell count: 80; HSV replic up primary fold: 0.85

How did Cc1ccc(C2CC(c3ccccc3Cl)n3nc(N)nc3N2)cc1 (stereo not given) do in these assays?
GALR2 ag: -1.8; HSV replic up: inactive; PKD1 inh: 0; RGS16-Gao HTS: 102; HSV replic up primary fold: 0.86

What do the screens show for `COc1ccccc1NC(=O)Nc1ccnn1Cc1cccs1`?
GALR2 ag: -2.5; HSV replic up: inactive; PKD1 inh: -4; RGS16-Gao HTS: -55*; HSV replic up primary fold: 0.98

What do the screens show for `Cc1oc(-c2ccc(Cl)cc2)nc1CN1CCC(C(=O)N2CCc3ccccc3C2)CC1`?
GALR2 ag: -3.0; PKD1 inh: -3; RGS16-Gao HTS: 101

3 consecutive entries from above, quoted:
Results for COc1ncnc2c1N[C@@](C)(O)c1c(F)c(F)c(F)c(F)c1S2 ?
GALR2 ag: -2.1; HSV replic up: inactive; PKD1 inh: -2; Insulin prom inh: -3; RGS16-Gao HTS: 102; Insulin prom inh cell count: 115; HSV replic up primary fold: 1

Results for CSc1ccccc1NC(=O)c1cccs1 ?
GALR2 ag: 0.5; HSV replic up: inactive; PKD1 inh: 1; Insulin prom inh: -14; RGS16-Gao HTS: 101; Insulin prom inh cell count: 153; HSV replic up primary fold: 0.89

What do the screens show for `CN1CCN(CCCN(Cc2ccco2)C(=S)Nc2ccc(Cl)cc2)CC1`?
HSV replic up: inactive; PKD1 inh: 5; RGS16-Gao HTS: 100; HSV replic up primary fold: 0.87

Carrying on:
What do the screens show for `CCOC(=O)C(CC)/C(C)=N/NC(=O)c1ccccc1[N+](=O)[O-]` (stereo not given)?
GALR2 ag: -0.9; HSV replic up: inactive; PKD1 inh: 7; RGS16-Gao HTS: 100; HSV replic up primary fold: 1

Results for CCn1cc(C(=O)N2CCN(Cc3ccc4c(c3)OCO4)CC2)c2cc(OC)c(OC)cc2c1=O ?
GALR2 ag: 0.0; HSV replic up: inactive; PKD1 inh: -3; Insulin prom inh: 8; RGS16-Gao HTS: 98; Insulin prom inh cell count: 101; HSV replic up primary fold: 1.1

What do the screens show for `Cc1cc(C)c(C(=O)COC(=O)c2cc([N+](=O)[O-])ccc2NCCO)cc1C`?
GALR2 ag: 2.0; HSV replic up: inactive; PKD1 inh: -1; RGS16-Gao HTS: 101; HSV replic up primary fold: 0.9

How did CCN1CCN(C(=O)c2ccc(Cn3c(=O)[nH]c4cc(OC)c(OC)cc4c3=O)cc2)CC1 do in these assays?
GALR2 ag: -2.1; HSV replic up: inactive; PKD1 inh: -7; Insulin prom inh: 43; RGS16-Gao HTS: 107; Insulin prom inh cell count: 100; HSV replic up primary fold: 0.96

Results for CCNC(=O)C12CCC(C)(C(=O)O1)C2(C)C (stereo not given) ?
HSV replic up: inactive; PKD1 inh: 3; Insulin prom inh: 13; RGS16-Gao HTS: 92; Insulin prom inh cell count: 98; HSV replic up primary fold: 0.99

Results for Fc1ccc(-n2[nH]nnc2=S)cc1N1CCCC1 ?
GALR2 ag: -1.6; HSV replic up: inactive; PKD1 inh: -6; Insulin prom inh: 16; RGS16-Gao HTS: 101; Insulin prom inh cell count: 148; HSV replic up primary fold: 0.76

What do the screens show for `COc1ccc(-c2n[nH]c(C)c2-c2cscn2)c(O)c1`?
HSV replic up: inactive; RGS16-Gao HTS: 100; HSV replic up primary fold: 0.92

Results for CCOC(=O)/C(C#N)=C/c1cn(CCC(=O)O)nc1-c1ccc(OC)cc1 ?
HSV replic up: inactive; PKD1 inh: -1; RGS16-Gao HTS: 103; HSV replic up primary fold: 1

Results for Cc1sc(NC(=S)NC(=O)CCc2ccccc2)c(C(N)=O)c1C ?
GALR2 ag: 3.8; HSV replic up: inactive; PKD1 inh: -3; Insulin prom inh: -79; RGS16-Gao HTS: 99; Insulin prom inh cell count: 7; HSV replic up primary fold: 0.55

What do the screens show for `CCCN(CC1CC1)C(=S)NC(=O)C1CC1`?
HSV replic up: inactive; PKD1 inh: 7; RGS16-Gao HTS: 100; HSV replic up primary fold: 1.1

Results for Cc1cc(NO)c(C(C)C)cc1N=O ?
GALR2 ag: -1.3; HSV replic up: inactive; PKD1 inh: 1; RGS16-Gao HTS: 100; HSV replic up primary fold: 0.98

What do the screens show for `CCCNC(=S)N1CCC(n2cnc3ccccc32)CC1`?
HSV replic up: inactive; PKD1 inh: 0; RGS16-Gao HTS: 101; HSV replic up primary fold: 0.84

How did Fc1cc(F)c2nc(N3CCCC3)sc2c1 do in these assays?
PKD1 inh: 0; Insulin prom inh: 62; RGS16-Gao HTS: 117; Insulin prom inh cell count: 72

What do the screens show for `O/N=C(/Cc1ccccn1)c1ccccc1`?
GALR2 ag: -2.8; HSV replic up: inactive; PKD1 inh: 0; RGS16-Gao HTS: 111; HSV replic up primary fold: 0.98

How did CC(C)C1CC(CCNCc2ccc3c(c2)OCO3)(c2ccccc2)CCO1 (stereo not given) do in these assays?
HSV replic up: inactive; RGS16-Gao HTS: 102; HSV replic up primary fold: 0.54

What do the screens show for `CC(C)Sc1cc(N2CCCC2)nc(-c2ccccc2Cl)n1`?
GALR2 ag: -0.2; HSV replic up: inactive; PKD1 inh: 3; Insulin prom inh: 38; RGS16-Gao HTS: 98; Insulin prom inh cell count: 124; HSV replic up primary fold: 0.92

Results for COc1ccc(CN2CCN(C(=O)c3cc(-c4cccnc4)nc4ccc(Cl)cc34)CC2)c(OC)c1OC ?
HSV replic up: inactive; PKD1 inh: -3; RGS16-Gao HTS: 100; HSV replic up primary fold: 0.73

What do the screens show for `N#C/C(=C\Nc1ccccc1O)c1nc2ccccc2o1`?
GALR2 ag: -0.4; HSV replic up: inactive; PKD1 inh: -6; Insulin prom inh: -31; RGS16-Gao HTS: 93; Insulin prom inh cell count: 78; HSV replic up primary fold: 1

How did Cc1ccc(-c2nsc(SCC(=O)NCC3CCCO3)n2)cc1 (stereo not given) do in these assays?
HSV replic up: inactive; PKD1 inh: -5; Insulin prom inh: -18; RGS16-Gao HTS: 99; Insulin prom inh cell count: 104; HSV replic up primary fold: 0.99

What do the screens show for `CC(=O)c1cccc(NC(=O)C(=O)Nc2cccc3ccccc23)c1`?
HSV replic up: inactive; PKD1 inh: 7; RGS16-Gao HTS: 102; HSV replic up primary fold: 0.92

What do the screens show for `CCOC(=O)C(CC(C)C)CP(=O)(O)CNC(=O)OCc1ccccc1` (stereo not given)?
GALR2 ag: -1.1; HSV replic up: inactive; PKD1 inh: -15; RGS16-Gao HTS: 103; HSV replic up primary fold: 1.1

Results for c1ccc(SCc2cc(-c3ccccc3)no2)cc1 ?
HSV replic up: inactive; PKD1 inh: 9; Insulin prom inh: -25; RGS16-Gao HTS: 92; Insulin prom inh cell count: 83; HSV replic up primary fold: 1

Results for CCOC(=O)C1=C(C)NC(=S)NC1c1cc(C)sc1C (stereo not given) ?
HSV replic up: inactive; PKD1 inh: -5; RGS16-Gao HTS: 101; HSV replic up primary fold: 0.97

How did COc1ccc(N(CC(=O)NCc2ccccn2)S(=O)(=O)c2ccccc2[N+](=O)[O-])c(OC)c1 do in these assays?
HSV replic up: inactive; PKD1 inh: 8; RGS16-Gao HTS: 111; HSV replic up primary fold: 1.1

How did CCOC(=O)c1ccc(NC(=O)COc2ccc(-n3cnnn3)cc2)cc1 do in these assays?
GALR2 ag: -1.4; HSV replic up: inactive; PKD1 inh: -10; Insulin prom inh: -3; RGS16-Gao HTS: 91; Insulin prom inh cell count: 75; HSV replic up primary fold: 1.1

How did Cc1ccc(C2/C(=C(/O)c3ccccc3)C(=O)C(=O)N2CCN2CCOCC2)o1 (stereo not given) do in these assays?
GALR2 ag: -0.7; HSV replic up: inactive; PKD1 inh: -1; Insulin prom inh: -25; RGS16-Gao HTS: 101; Insulin prom inh cell count: 79; HSV replic up primary fold: 0.71

Results for O=C(CCCN1C(=O)c2ccccc2C1=O)Nc1ccc(Br)cn1 ?
GALR2 ag: -1.5; HSV replic up: inactive; PKD1 inh: -7; Insulin prom inh: -55; RGS16-Gao HTS: 104; Insulin prom inh cell count: 61; HSV replic up primary fold: 1

Results for CCc1cc2c(=O)n(Cc3ccco3)c(SCC(=O)N3CCCc4ccccc43)nc2s1 ?
GALR2 ag: -0.4; HSV replic up: inactive; PKD1 inh: -12; RGS16-Gao HTS: -21; HSV replic up primary fold: 1

What do the screens show for `COc1ccc(Cn2nnnc2C(CC(C)C)N2CCN(c3ccccc3)CC2)cc1` (stereo not given)?
GALR2 ag: -2.3; HSV replic up: inactive; PKD1 inh: -8; Insulin prom inh: 21; RGS16-Gao HTS: 102; Insulin prom inh cell count: 124; HSV replic up primary fold: 0.99

How did Cc1cc(CN(C)Cc2cn(C)nc2-c2ccc(Oc3ccccc3)cc2)on1 do in these assays?
HSV replic up: inactive; RGS16-Gao HTS: 105; HSV replic up primary fold: 0.66

Assay outcomes from PubChem.
